# Screening data: PubChem BioAssay, Center for Chemical Genomics, University of Michigan
# TAR Tat displ: TAR RNA-Tat peptide displacers, HIV-1, primary screen, biochemical, FRET, FAM/TAMRA-labeled Tat; HIV-1 TAR RNA, Tat peptide displacement FRET; stronger effect = higher value; z-score (concentration not given with the values); 100,000 tested, 0.6% active; AID 1259389, 2018;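 note: score is relative to mean and SD of negative controls; some compounds called inactive have numbers as strong as hits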
# CDC25B CDK2 inh: primary biochemical HTRF screen for blockers of M-phase inducer phosphatase 2 binding to CDK2/cyclin A; P30305+P24941; HTRF CDC25B-CDK2/CyclinA binding, anti-His/anti-Flag; stronger effect = higher value; z-score (no concentration beside the values); 94,000 tested, 0.72% active; AID 1259370, 2018;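 note: score is relative to mean and SD of negative controls; strong numbers were not always called active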
# Active calls of the source: *; / = no result given.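 Rule for the calls: active = z-score from 3 up in half or more of its runs; inactive = the rest.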
SMILES,TAR Tat displ,CDC25B CDK2 inh
CC1=C(C(=O)OCc2ccccc2)C(c2ccc(F)cc2)NC(=O)N1 (configuration not stated),/,-1.5
O=S(=O)(c1ccccc1)c1ccc(S(=O)(=O)N2CCOCC2)s1,/,-0.46
CC(=O)N1N=C(c2cc(C3CC3)nc3ccccc23)OC1c1cccc(Cl)c1 (configuration not stated),1.5,/
CCN1C(=O)c2cc3ccccc3n2CC1(C)C(=O)NCC(=O)NCCc1ccco1 (configuration not stated),-0.54,/
O=S(=O)(Cc1cccc(C(F)(F)F)c1)N1CCOCC1,/,-2.1
CCc1nnc2c(NCCCOC(C)C)nc3ccccc3n12,0.63,/
COc1nc(-c2ccc(C)cc2)ccc1-c1noc(-c2cccnc2)n1,0.05,0.52
CN(C)CCNc1nc(Nc2cccc(Cl)c2)c2cnn(C)c2n1,0.94,/
COc1ccc(OC)c(-c2noc(CSc3nnc(-c4ccncc4)n3-c3ccccc3)n2)c1,1.2,-1.9
Cc1c(C(=O)Nc2ccc3nsnc3c2)oc2ccc(Cl)cc12,0.98,3.1
COc1ccc(C2=NN(C(=O)CCC(=O)O)C(c3ccc(Cl)cc3)C2)cc1OC (configuration not stated),-1.7,-0.81
CC1=C(c2ccc(C)c(C)c2)S(=O)(=O)N=C1Nc1cc(C)cc(C)c1,0.92,-4
Fc1ccc(Nc2c(-c3ccccn3)nc3ccccn23)cc1,/,0.96
CCOc1ccc(S(=O)(=O)n2nc(C)c(S(=O)(=O)N3CCCCC3)c2C)cc1,0.24,/
CCC(=O)Nc1ccccc1SCc1cc(=O)n2nc(C(CC)CC)sc2n1,0.51,/
CN(C(=O)CSc1nc(-c2ccco2)cc(C(F)(F)F)n1)c1ccccc1,1.3,-0.31
Cc1nn(C)c(C)c1CNC(=O)Nc1ccc(F)cc1F,1.2,/
COc1ccc(OC)c(-c2noc(NCCc3ccc(Cl)cc3)n2)c1,1.6,/
FC(F)(F)c1ccc(-c2nnc(-c3ccc(Cl)cc3)o2)nc1,/,-1.6
CCC(C)[C@H](N)c1nnc(SCc2ccc(C)cc2)o1 (some centres not stated),0.59,-0.29
Cc1cc(C)c(Cn2c3ccccc3c3cnn(CC(=O)N4CCCC4)c(=O)c32)c(C)c1,1.8,-1.7
Cn1c(=O)c2c(-c3cccc(Br)c3)n(C(C)(C)CO)cc2n(C)c1=O,1.5,-0.94
Cc1cccc(N2CCN(CCNc3nc4ccccc4c4nc(-c5ccncc5)nn34)CC2)c1C,-1.2,-1.4
COc1ccccc1CNc1nn2nnnc2c2ccccc12,1.7,/
CC(C)CC(=O)N(c1ccc(Br)cc1)C1C=CS(=O)(=O)C1 (configuration not stated),1.5,-2

# Next part; it opens with the six that closed the last part.
SMILES,TAR Tat displ,CDC25B CDK2 inh
CCC(C)[C@H](N)c1nnc(SCc2ccc(C)cc2)o1 (some centres not stated),0.59,-0.29
Cc1cc(C)c(Cn2c3ccccc3c3cnn(CC(=O)N4CCCC4)c(=O)c32)c(C)c1,1.8,-1.7
Cn1c(=O)c2c(-c3cccc(Br)c3)n(C(C)(C)CO)cc2n(C)c1=O,1.5,-0.94
Cc1cccc(N2CCN(CCNc3nc4ccccc4c4nc(-c5ccncc5)nn34)CC2)c1C,-1.2,-1.4
COc1ccccc1CNc1nn2nnnc2c2ccccc12,1.7,/
CC(C)CC(=O)N(c1ccc(Br)cc1)C1C=CS(=O)(=O)C1 (configuration not stated),1.5,-2
CC1=Nn2c(nnc2-c2ccccc2)SC1,1.6,-0.07
CC(C)CN(CC(C)C)S(=O)(=O)c1ccc2c(c1)C(C)(C)C(=O)N2C,2,/
Cc1ccc(C)c(S(=O)(=O)NCCc2csc(-c3ccc(Cl)cc3)n2)c1,0.52,/
NC(=O)c1sc(N2CCCCC2)nc1N,0.23,0.14
CSC1=N/C(=C\c2ccc(C(=O)O)cc2)C(=O)S1,0.43,-0.32
CCOc1ccc(N2C(=O)CC(NC3CCN(c4ccc(S(=O)(=O)CC)cc4)CC3)C2=O)cc1 (configuration not stated),1.4,-0.5
O=[N+]([O-])c1ccc(S(=O)(=O)c2ccc(Cl)cc2)c(Cl)c1,/,-1.3
O=C(NCCc1c[nH]c2ccccc12)c1cc2n(n1)C(C(F)(F)F)CC(c1ccco1)N2 (configuration not stated),-1.1,1.3
Cc1ccc(C2=Nn3c(nnc3-c3ccccc3C)SC2)cc1,-0.12,/
O=C(NCC1COc2ccccc2O1)C(NS(=O)(=O)c1cccc2nsnc12)c1ccccc1 (configuration not stated),/,-0.83
O=C(Cn1c(=O)n(-c2cccc(Cl)c2)c(=O)c2sc3ccccc3c21)N1CCCC1,0.25,-1.9
COc1cc(OC)cc(-c2noc(-c3scc(-c4cccc(C)c4)c3-n3cccc3)n2)c1,0.1,-2.5
O=C(NC1CCCCC1)C1CCCN1c1nnc(N2CCCC2=O)s1 (configuration not stated),4.5,-2
CN(C)CCN1C(=O)C(=O)/C(=C(/O)c2ccc(F)cc2)C1c1ccccc1F (configuration not stated),0.87,-2
O=C(Cn1ncc2ccsc2c1=O)NCCCN1CCN(C2CCCCC2)CC1,-1.1,-2.3
C=CCn1c(=S)[nH]c2c(c1=O)C1(CCCC1)Cc1ccccc1-2,/,-3.4
O=C(C1c2ccccc2Oc2ccccc21)N1CCOCC1,/,-1.2
COc1cc(CC(=O)O)c([N+](=O)[O-])cc1OC,/,-1.6
CCOc1ccc(N2CCCCn3c2nc2c3c(=O)n(CC)c(=O)n2C)cc1,2.5,0.33
Cc1cc(C)nc(Nc2ccc(O)cc2)n1,1.6,-0.91
Cc1ccccc1Cn1cccc1CNS(=O)(=O)c1ccccc1Cl,1.4,/
COc1cccc(Oc2ncnc3c2oc2ccccc23)c1,-2.3,/
CSc1ccc(C2c3c(oc4cc(C)c(C)cc4c3=O)C(=O)N2CCCN2CCOCC2)cc1 (configuration not stated),0.21,-0.26
CC1(C)CS(=O)(=O)N(c2ccc(C(=O)N3CCN(Cc4ccc5c(c4)OCO5)CC3)cc2)C1=O,1.6,-1.9
CC1CCN(C(=O)CCc2nc(CN3CCN(C(=O)CCc4cc(Cl)no4)CC3)no2)CC1,1.6,/

# A few values from above.
# Under CDC25B CDK2 inh, `CSC1=N/C(=C\c2ccc(C(=O)O)cc2)C(=O)S1` shows -0.32
# Under CDC25B CDK2 inh, `O=C(NCC1COc2ccccc2O1)C(NS(=O)(=O)c1cccc2nsnc12)c1ccccc1` (configuration not stated) shows -0.83

# Further compounds:
SMILES,TAR Tat displ,CDC25B CDK2 inh
CCCC12CN3CC(CCC)(CN(C1)C3c1ccccc1)C2=O (configuration not stated),-0.56,-0.4
CCN(CC)CCNC(=O)Cn1nc(C)n2c(cc3sccc32)c1=O,-0.21,0.33
CCOc1ccc(N(Cc2ccccc2F)C2=NC3CS(=O)(=O)CC3S2)cc1 (configuration not stated),1.3,-2.3
CCOC(=O)c1c(NC(=O)CN2CCCCC2)sc2c1CCCC2,-0.22,-1
Cc1cc(NC(=O)CC(C)S(=O)(=O)c2cc3c(cc2C)NC(=O)CO3)ccc1Br (configuration not stated),-0.29,/
Cc1cc(Br)ccc1NS(=O)(=O)c1ccc(N2CCCCS2(=O)=O)cc1,-0.02,/
Nc1nc(Sc2c([N+](=O)[O-])cc(C(F)(F)F)cc2[N+](=O)[O-])n[nH]1,/,-2.1
CCOC(=O)c1ccc(NC(=O)CSc2nnnn2C)cc1,/,-2.7
O=C(O)C(O)C(O)C(O)CO (configuration not stated),/,-3.4
CCOc1cc(C2C(C(=O)c3cc4ccccc4o3)=C(O)C(=O)N2CCN(C)C)ccc1O (configuration not stated),0.46,2.1
O=C1C2C3CCCC3=C3CCCC3C2C(=O)N1c1ccccc1F (configuration not stated),-1.4,-0.96
CN1CCN(S(=O)(=O)c2ccc(-c3ccc(S(=O)(=O)N4CCN(C)CC4)cc3)cc2)CC1,1.5,/
COc1ccc(Cl)cc1N1C(=O)C2CCCN2C1c1ccc(Cl)cc1 (configuration not stated),2.2,-1.9
Cc1cccc(N2CCN(C(=O)CCCc3nnc4n5nc(C)nc5c5ccccc5n34)CC2C)c1 (configuration not stated),2.6,-1.3
Cc1n(CC(O)COC2CCCCC2)c2ccccc2[n+]1C (configuration not stated),-0.31,-1.6
O=C(Nc1ccc(-c2ccccn2)s1)N1CCOCC1,/,-0.52
Cn1c(=O)[nH]c(=O)c2c1nc1oc(-c3ccc(Cl)cc3)cn12,/,-0.43
COc1ccc2cc(-c3ccon3)ccc2c1,/,-0.62
CCN1C(C(=O)c2ccccc2)=C(OC(=O)c2ccc(Cl)cc2)c2ccccc2S1(=O)=O,-0.28,-1.4
CCOC(=O)C(C)n1cnc2c(nnn2-c2cccc(Cl)c2)c1=O (configuration not stated),-1.7,-0.46
CCOc1ccc(-c2noc(-c3nnn(-c4ccc(C(C)C)cc4)c3N)n2)cc1,0.56,/
COc1ccc(N(C(=O)c2ccco2)S(=O)(=O)c2ccc3c(c2)oc(=O)n3C)cc1,2.5,-1.7
CCCc1ccc(-c2nc(-c3ccc(OS(=O)(=O)N(C)C)cc3)no2)cc1,/,-2
CC(C)(C)C1CCc2onc(C(=O)Nc3sc4c(c3C#N)CCC4)c2C1 (configuration not stated),/,-0.74
O=S(=O)(NCCc1nc(-c2ccc(Cl)cc2)no1)c1ccc(F)cc1,-0.86,-0.86
SMILES,TAR Tat displ,CDC25B CDK2 inh
O=C(COc1ccc(Cl)cc1-n1cnnc1)Nc1cccc2nsnc12,1.7,/
O=C(Nc1nnc(Cc2ccccc2)s1)C(=O)c1c[nH]c2ccccc12,2.1,-1.8
O=S1(=O)NN=C(c2ccccc2)c2ccccc21,-0.36,-1.5
c1ccc(-c2csc3nc4ccccc4n23)cc1,0.64,-0.8
C#CCOc1nc(OCC#C)nc(N2CCN(C)CC2)n1,-0.76,-2.3
CC1CCC(NC(=O)CN(C)S(=O)(=O)c2ccc3c(c2)CCCC(=O)N3)CC1 (configuration not stated),-0.18,/
O=C(CN1Cc2ccccc2C1=O)Nc1ccc(F)cc1F,-1.5,/
CCOc1ccc(-c2nc(C#N)c(NC3CC3)o2)cc1,1.3,-0.51
CCCN1C=C(OC(=O)CN2C(=O)CCC2=O)c2ccccc2S1(=O)=O,0.86,-1.5
CC1CCN(C(=O)c2cc3c(s2)-c2ccccc2S(=O)(=O)C3)CC1,0.36,-0.89
CCN1C(=O)c2ccccc2Sc2ccc(NC(=O)NCCCOC(C)C)cc21,1.9,-0.16
COc1ccc2nc3oc(C(=O)NC4CC4)cc3cc2c1,/,-1.7
O=C(c1ccccc1)c1ccc(-c2ccccc2)cc1,/,-2.2
CCc1nnc2c(Nc3cc(Cl)c(OC)cc3OC)nc3ccccc3n12,-0.5,/
O=C1CC(c2ccccc2)C(=O)N1Cc1cccs1 (configuration not stated),/,0.27
CCCOC(=O)C1=C(C)Nc2nnnn2C1c1cc(Br)ccc1OCC (configuration not stated),-1.1,0.14
COc1ccc(C(O)(CCN2CCCCC2)C2CCCCC2)cc1 (configuration not stated),/,-1.8
CC(C)C(=O)Nc1nc2cc(NS(=O)(=O)c3ccc(F)c(F)c3)ccc2s1,0.95,/
CC1=C(C(=O)NCc2ccc3c(c2)OCO3)C2(CCN(S(C)(=O)=O)CC2)OC1=O,0.82,/
CCCCN(CCCC)C(=O)NC1=C(C#N)C(C)(C)Cc2ccccc21,1.3,-2.3
COc1ccc(NC(=O)c2cnn3c2NC(c2ccco2)CC3C(F)(F)F)cc1Cl (configuration not stated),-12,/
Cn1c(C(=O)N2CCN(c3cccc(Cl)c3)CC2)cc2sccc21,1.1,-0.46
COc1cc(-c2oc3cc(O)ccc3c(=O)c2O)ccc1O,2.3,/
COc1cc(C2C(C#N)=C(C)NC3=C2C(=O)CC(c2ccc(Cl)cc2)C3)ccc1OC(C)=O (configuration not stated),-0.37,0.4
COC(=O)C1=C(C)NC2=C(C(=O)CCC2)C1c1coc2ccc(Cl)cc2c1=O (configuration not stated),1,/
SMILES,TAR Tat displ,CDC25B CDK2 inh
COc1ccc(C2c3c(-c4ccccc4O)n[nH]c3C(=O)N2Cc2ccncc2)cc1OC (configuration not stated),-0.96,-1.6
CCOc1ccc(-c2cc(-c3nc(-c4ccc(C)cc4)no3)[nH]n2)cc1,0.99,/
CCN1CCN(c2nc3ncn(CC(=O)N4CCN(c5ccc(F)cc5)CC4)c(=O)c3s2)CC1,1.9,/
Cc1ccc(-n2cc(-c3ccccc3)c3c(N4CCCC4)ncnc32)cc1,/,-2.8
O=C(NC1CC1)c1ccc2snnc2c1,1.3,-0.03
O=C(CSc1nnc(-c2cccs2)o1)Oc1ccccc1Cl,-1.2,-0.44
Cc1ccsc1CCNc1c(-c2ccc3c(c2)CCCC3)c(=O)c1=O,0.24,/
CC(=O)N1CCc2cc(Br)cc(S(=O)(=O)CCC(=O)NC3CCCCC3C)c21 (configuration not stated),/,0.65
CCOC(=O)c1c(NC(=O)Cn2nc(C)c([N+](=O)[O-])c2C)sc2c1CCC(C(C)(C)C)C2 (configuration not stated),/,-0.16

# 5 compounds drawn at random from the list so far:
SMILES,TAR Tat displ,CDC25B CDK2 inh
Cc1ccc(-n2cc(-c3ccccc3)c3c(N4CCCC4)ncnc32)cc1,/,-2.8
COc1ccc(C2c3c(-c4ccccc4O)n[nH]c3C(=O)N2Cc2ccncc2)cc1OC (configuration not stated),-0.96,-1.6
O=C(NC1CC1)c1ccc2snnc2c1,1.3,-0.03
Cc1ccsc1CCNc1c(-c2ccc3c(c2)CCCC3)c(=O)c1=O,0.24,/
O=C(CSc1nnc(-c2cccs2)o1)Oc1ccccc1Cl,-1.2,-0.44

# Some of the entries so far, with two lines to a compound:
# Values in the order – TAR Tat displ, CDC25B CDK2 inh
O=C(COc1ccc(Cl)cc1-n1cnnc1)Nc1cccc2nsnc12
 : 1.7, /
NC(=O)c1sc(N2CCCCC2)nc1N
 : 0.23, 0.14
Cc1cc(C)nc(Nc2ccc(O)cc2)n1
 : 1.6, -0.91
